# Compound activity (PubChem BioAssay)
# Mtb H37Rv = Mycobacterium tuberculosis H37Rv growth inhibition, cell based, confirmatory dose response (AID 1949) | 100,000 compounds, 1.6% hits | inhibition, % at 10 µg/mL; hits with a dose series show IC50 in µg/mL | most inactive calls were filed without a number and no value below 0 was filed | M. tuberculosis H37Rv growth inhibition;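 active = confirmed in a dose series; inconclusive = about 50% or more but not retested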;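 also: bacteria grown 7 days with compound before Alamar blue readout; 0% = untreated bacteria and 100% = reference antibiotic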
# The depositor's hits bear a star; i = inactive; ? = inconclusive.
Structure	Mtb H37Rv
CCOc1ccc(C(=O)Nc2cc(C(F)(F)F)ccc2N2CCOCC2)cc1Cl	i
CN(CC(=O)Nc1ccc2c(c1)OCO2)S(=O)(=O)c1ccc(Cl)cc1	i
Cc1ccc(C(=O)Nc2nc(-c3ccccc3)cs2)c(Cl)c1	5.9%
COc1ccc(CCC(=O)NCc2ccc(Cl)cc2)cc1	1.6%
COc1ccc(OC)c(S(=O)(=O)N2CCC(C(=O)NCC3CCCO3)CC2)c1 (stereo not given)	i
CC(C)(C)c1csc(NC(=O)Cn2cnc3ccccc3c2=O)n1	i
COC(=O)C1C2C=CC3(CN(C(C)c4ccccc4)C(=O)C13)O2 (stereo not given)	1.8%
Cc1ccc(OCC(=O)N2CCN(c3cccc(Cl)c3)CC2)cc1C	4.2%
CC(C)(C)c1ccc(S(=O)(=O)NCc2ccc(C(=O)NCc3ccccn3)cc2)cc1	i
COc1ccc(C(CCN)c2ccccc2OC)cc1 (stereo not given)	i
Cc1c(Cl)cccc1NC(=S)Nc1ccn(C)n1	i
Cn1cnnc1SCC(=O)c1ccc(C(C)(C)C)cc1	i
Cc1ccc(S(=O)(=O)N(CC(=O)N2CCCCCC2)c2ccccc2F)cc1	i
COc1cc(NC(=S)NC2CCCCCC2)c(OC)cc1Cl	i
Cc1cc(C)n2nc(C)c(-c3ccccc3)c2n1	i
NCCNCCOCCOc1ccc(Br)cc1Cl	5.8%
Brc1ccc2c(c1)CN(Cc1ccc3c(c1)OCO3)CO2	i
O=C(CCN1C(=O)C2C3CCC(C3)C2C1=O)Nc1ccc(Cl)c(Cl)c1 (stereo not given)	i
CCOc1ccc(Cl)cc1CNc1ccc(Br)cc1	1.9%
N#CC1(c2ccc(NC(=O)Cc3ccc(Cl)cc3)cc2)CCCC1	i
O=C(Nc1ccc(-c2nnc(-c3ccccc3)o2)cc1)C1CCCCC1	i
COc1c(S(=O)(=O)N2CCCCC2)ccc2c(S(=O)(=O)N3CCCCC3)cccc12	i
O=C(NCCN1CCN(C(=O)c2ccc(F)cc2)CC1)C(=O)NCc1ccccc1	i
Cc1ccc(CC(=O)NC2CCCCCCC2)cc1	i
O=C(Oc1cccnc1)c1ccc(F)cc1	i
CCC(Oc1ccccc1)C(=O)Nc1ccccc1C#N (stereo not given)	i
CCOC(=O)N1CCN(S(=O)(=O)c2cc(C)c(C)cc2OC)CC1	i
COC(=O)c1ccc(NS(=O)(=O)c2ccc(Br)cc2)cc1	1.5%
O=C(CSCC(=O)Nc1ccc(F)c(Cl)c1)Nc1ccccc1	i
CCCn1c2ccccc2c2nnc(SCC(=O)Nc3cc(C)ccn3)nc21	i
COc1cc(C2C(C(=O)c3cccs3)=C(O)C(=O)N2CCCN(C)C)ccc1OCCC(C)C (stereo not given)	i
COC(=O)c1ccc(CSc2nc3sc(C)c(C)c3c(=O)[nH]2)cc1	7.2%
CCSc1nnc(-c2cc(OC)cc(OC)c2)o1	i
CCC(C)c1ccc(-c2csc(NC(C)=O)n2)cc1 (stereo not given)	9.3%
O=C(Nc1nc2c(Cl)cccc2s1)c1cc2ccccc2o1	i
CCc1ccccc1-n1c(=O)oc2ccc(Cl)cc2c1=O	1.37µg/mL*
CC(=O)Nc1ccc(S(=O)(=O)NC2CCCC2)cc1	i
CCOc1ccc(NC(=O)CSc2nnc3scc(-c4ccc(Cl)cc4)n23)cc1	i
O=C(COc1ccc(S(=O)(=O)NCCc2ccccc2)cc1)N1CCOCC1	i
COc1ccc(CCNC(=O)CSc2nnnn2C)cc1OC	i
Cc1ccc(S(=O)(=O)Nc2ccc(NC(=O)c3ccc(C)o3)cc2)cc1	i
Cc1ccc(NC(=O)c2ccc(OC(=O)c3ccccc3F)cc2)cc1	13.3%
CCC(C)(C)C1CCC(NC(=O)C(=O)Nc2ccc(Br)c(C)c2)CC1 (stereo not given)	i
COc1ccc(CCNC(=O)c2cc(-c3ccc(C)o3)nc3ccccc23)cc1OC	i
CN1CCN(S(=O)(=O)c2ccc(=O)[nH]c2)CC1	i
O=C(COc1cc(Cl)c(Cl)cc1Cl)Nn1cnnc1	i
COc1ccccc1NC(=O)CSc1nc2ccccc2c(=O)[nH]1	i
CCOc1ccccc1NC(=O)CCC1CCCCC1	i
COc1ccc(/C(N)=N/OC(=O)COc2ccc(Br)cc2)cc1	1.7%
Cc1ccc2nc(/C(C#N)=C/c3ccccc3C(=O)O)[nH]c2c1	0.9%
Cc1onc(-c2c(F)cccc2Cl)c1C(=O)NC(=S)NCc1ccco1	i
O=C(CSc1nnc(CCCOc2ccc(Cl)cc2Cl)o1)Nc1nc(-c2ccccc2)cs1	i
Nn1c(NCc2ccccc2)nc2ccccc21	i
Cc1ccc(-c2cc(C(F)F)n3ncc(C(=O)NCCN4CCOCC4)c3n2)cc1	i
CCOc1ccc(NS(=O)(=O)c2ccc(NC(=O)COc3ccc(Cl)cc3Cl)cc2)cc1	i
CCN(CC)Cc1c(O)ccc2c(=O)c(Oc3cccc(C)c3)c(C(F)(F)F)oc12	3.6%
CN(C)c1nc(C(N)=O)nc(N2CCOCC2)n1	i
CCN1CCOC(CC(=O)Nc2cccc(C(F)(F)F)c2)C1=O (stereo not given)	i
COC(=O)c1ccccc1NC(=O)COc1ccc2oc3c(c2c1)CCCC3	i
O=c1oc2ccc3ccccc3c2c2c1SC(C(F)(F)F)C2 (stereo not given)	0.2%

# Some of these compounds in order of molar mass, rising.
Structure	Mtb H37Rv
Cc1ccc2nc(/C(C#N)=C/c3ccccc3C(=O)O)[nH]c2c1	0.9%
O=C(COc1cc(Cl)c(Cl)cc1Cl)Nn1cnnc1	i
COc1ccccc1NC(=O)CSc1nc2ccccc2c(=O)[nH]1	i
Cc1ccc(NC(=O)c2ccc(OC(=O)c3ccccc3F)cc2)cc1	13.3%
COC(=O)c1ccc(CSc2nc3sc(C)c(C)c3c(=O)[nH]2)cc1	7.2%
O=C(COc1ccc(S(=O)(=O)NCCc2ccccc2)cc1)N1CCOCC1	i

# Carrying on.
Structure	Mtb H37Rv
CCOc1ccc(OCc2ccc(C(=O)Nc3cccnc3)o2)cc1	?
COc1ccc(C=NN2CCN(Cc3ccc(C)cc3C)CC2)cc1	i
CCc1ccc(NC(=O)Cn2cnc3ccccc3c2=O)cc1	i
O=C(COc1ccc(Br)cc1)Nc1nc2c(Cl)cccc2s1	2.7%
CCc1c(C)c2ccc(OCc3ccc([N+](=O)[O-])cc3)cc2oc1=O	i
COc1ccc(CCNc2nc(N3CCCC3)nc(N3CCCC3)n2)cc1OC	5.35µg/mL*
O=C1NC(=S)NC(=O)C1=Cc1ccc(OC(=O)c2ccc(Cl)cc2)cc1	i
CCCN(CCC)S(=O)(=O)c1ccc(Cl)c(Cl)c1OC	0.2%
CC(C)(C)NC(=O)C1CCC(C)(C(=O)O)C1(C)C (stereo not given)	i
CCOCCCNC(=O)CC(c1ccccc1)c1ccccc1O (stereo not given)	0.2%
CNC(=O)CN(c1cc(C)ccc1C)S(C)(=O)=O	i
CCc1c(C)sc(NC(=S)N2CCN(c3ccc(Cl)c(Cl)c3)CC2)c1C(=O)OC	7.6%
Cc1ccc(NC(=O)COc2ccccc2)c(NC(=O)C2CC2)c1	i
Cc1nc2nc(NCc3ccccc3F)[nH]n2c(=O)c1C	1.1%
O=C(Nc1ccc(S(=O)(=O)NC2CCCCC2)cc1)NC1CCCCC1	i
CC(C)CC(=O)NC(=S)Nc1ccc(Oc2ccc(NC(=S)NC(=O)CC(C)C)cc2)cc1	i
N=C1/C(=C(/O)c2ccccc2)C(c2cccnc2)C2=C(CCCC2=O)N1c1ccc(F)cc1 (stereo not given)	i
CCOc1ccc(NC(=S)NC(C)c2ccc(C)cc2C)cc1 (stereo not given)	i
Oc1c(C(Nc2cccnc2)c2ccsc2)ccc2cccnc12 (stereo not given)	5.0%
O=S(=O)(Nc1ccc(O)cc1)c1cc(Cl)ccc1Cl	i
O=C(CNC(=O)C12CC3CC(CC(C3)C1)C2)NC1=NCCS1	i
Cc1cc(C)c(C#N)c(SCCS(=O)(=O)Cc2ccccc2)n1	1.0%
Cc1ccc(C(=O)Oc2ccc(Cl)cc2)cc1I	i
Cn1nnnc1SCC(=O)N1CCN(Cc2ccccc2)CC1	i
OCCOc1c(Cl)cc(CO)cc1Cl	i
COc1ccc(N(CC(=O)Nc2ccccc2C(F)(F)F)S(=O)(=O)c2ccccc2)cc1	3.9%
CN1CCN(C(=O)c2ccc(Cl)c(S(=O)(=O)N3CCCCC3)c2)CC1	i
O=C(O)CC(C(=O)Nc1cccc(C(F)(F)F)c1)C1CCCO1 (stereo not given)	i
Cc1ccccc1C(=O)N1CCC(C(=O)Nc2ccc(Cl)c(Cl)c2)CC1	i
Cc1ccc2[nH]c(C)c(CN3CCOCC3)c(=O)c2c1	i
Cc1nn(Cc2cccc(C(=O)Nc3nc4ccc(S(C)(=O)=O)cc4s3)c2)c(C)c1Cl	i
Cc1ccc(C(=O)NC(=S)Nc2cc(C(=O)O)ccc2C)cc1C	8.6%
CCOc1ccc(NS(=O)(=O)c2ccc(NC(=O)c3cccc([N+](=O)[O-])c3)cc2)cc1	i
CCCCC(=O)Nc1ccc(C(=O)Nc2ccccc2CC)cc1	7.0%
CN(C)CCNC(=S)Nc1ccc(F)cc1	i
CC12CCC(C(=O)Nc3ccc(Cl)cc3Cl)(CC1=O)C2(C)C (stereo not given)	i
Cc1ccc(OCc2nnc(SCC(=O)N3CCc4ccccc43)n2N)cc1C	i
CCN(C(=O)COc1ccc(Cl)cc1Br)c1ccccc1	i
O=C(CSc1nnc(-c2ccc(Br)cc2)o1)Nc1ccc(Cl)cc1Cl	i
Cn1c(SCC(=O)Nc2ccc(N3CCOCC3)c(Cl)c2)nnc1-c1ccccc1	32.1%
Cc1ccc(CN(c2ccc(C(=O)Nc3ccc(S(=O)(=O)N4CCCC4)cc3)cc2)S(C)(=O)=O)cc1	1.6%
Cn1c(Cc2ccccc2)nnc1SCC(=O)Nc1ccc2c(c1)OCO2	i
CS(=O)(=O)N1CCCc2ccccc21	0.8%
CS(=O)(=O)N(Cc1ccccc1)c1ccccc1C(=O)Nc1ccccc1Sc1ccccc1	i
O=C(/C=C/c1cn(-c2ccccc2)nc1-c1ccc(Cl)cc1)c1cccs1	2.4%
CCN1C(=O)c2cccc3c(S(=O)(=O)N4CCCC4C(=O)O)ccc1c23 (stereo not given)	i
CCOC(=O)CNC(=O)c1sc2cccc(F)c2c1Cl	i
N#Cc1c(C(F)(F)F)cc(-c2ccccc2)nc1SCCS(=O)(=O)c1ccc(Cl)cc1	i
COc1ccccc1C(=O)NNC(=S)NC(=O)c1ccc(-c2ccccc2)cc1	<0.1µg/mL*
NC(=O)c1c(NC(=O)c2c(Cl)cccc2Cl)sc2c1CCCC2	i
O=C(Cc1ccc(F)cc1)Oc1ccc(C(=S)N2CCCC2)cc1	0.1%
COC(=O)c1c(-c2ccccc2)csc1NC(=O)c1cc(OC)cc(OC)c1	39.5%
Cc1cc(C)c(C#N)c(SCC(=O)Nc2c(Cl)cccc2Cl)n1	0.5%
CCc1nnc(NC(=O)c2cc(-c3cccc(OC)c3)nc3ccccc23)s1	i
CN(C)CCC#CC(O)(c1ccccc1)c1ccccc1	i
COC(=O)c1cc(Cl)c(NC(=O)c2ccc(C(C)(C)C)cc2)cc1OC	40.1%
O=C(CSCCO)Nc1ccc(C2CCCCC2)cc1	i
CCOc1ccc(N/C(N)=N\c2nc3c(c(=O)[nH]2)CCCC3)cc1	6.3%
Cc1cc(OCC(=O)Nc2ccc(S(=O)(=O)N3CC(C)OC(C)C3)cc2)ccc1Cl (stereo not given)	i
CCOC(=O)c1ccc(NS(=O)(=O)Cc2ccc(Cl)cc2)cc1	i

# Going on with the list.
Structure	Mtb H37Rv
CC(NC(=O)CSc1nnc2c3ccccc3n(C)c2n1)c1ccccc1 (stereo not given)	i
Cc1ccccc1CNC(=O)CN(c1cc(Cl)ccc1Cl)S(C)(=O)=O	i
CC(=O)c1ccc(N(C(F)F)S(=O)(=O)c2ccc(Cl)cc2)cc1	3.0%
COc1ccccc1C(=O)NC(=S)Nc1ccc(C(=O)O)cc1	3.5%
Cc1cc(=O)oc2cc(NC(=S)NNC(=O)Cc3c(F)cccc3Cl)ccc12	i
C=CCN(CC=C)Cc1c(C)[nH]c2ccc(OC)cc2c1=O	i
COc1ccc(CCn2cnc3sc4c(c3c2=N)CCCC4)cc1OC	5.2%
Cc1nc(N2C(=O)C(O)=C(C(=O)c3cccs3)C2c2ccccc2F)sc1C (stereo not given)	i
O=C(NCC1CCCO1)c1ccc2c(=O)n(CCC3=CCCCC3)c(=S)[nH]c2c1 (stereo not given)	i
COCCCN1C(=O)C(O)=C(C(=O)c2ccc(C)o2)C1c1ccc(I)cc1 (stereo not given)	i
CCN1CCN(S(=O)(=O)c2cccc(Cl)c2)CC1	i
CNC(=O)NC1CCCCc2sccc21 (stereo not given)	2.0%
O=C1CC(N2CCN(c3ccc(O)cc3)CC2)C(=O)N1c1ccccc1 (stereo not given)	i
Cc1ccc(NC(=O)CCn2cnc3ccccc3c2=O)cc1C	i
CC(=O)Nc1ccc(NC(=O)C(=O)NCc2ccccc2)cc1	i
Cc1cc(Cl)ccc1OCC(=O)Nc1ccc(F)c(Cl)c1	i
OCc1cc(Br)ccc1OCc1ccc(Cl)cc1	i
O=C(Nc1ccc2c(c1)OCO2)C1COc2ccccc2O1 (stereo not given)	i
COc1c(S(=O)(=O)n2nnc3ccccc32)ccc(Cl)c1Cl	i
Cc1ccc(OCCn2c(C(C)C)nc3ccccc32)cc1	?
COc1cccc(NS(=O)(=O)c2c(Cl)cccc2Cl)c1	i

# Not all compounds are listed (hit frequency here may not be typical).
